VACV E9 pol inh – vaccinia E9 polymerase processive synthesis inhibitors, primary screen, biochemical, absorbance; Vaccinia virus DNA polymerase (E9) processive complex; in vitro processive DNA synthesis, absorbance read-out; active compounds read low; some inactives read as strong as hits; normalized absorbance, % (test concentration not listed); actives 0.94% (n = 46,000); AID 493162, 2011;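 active = replicate mean up to 90% and picked by the depositor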;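 note: 100% = median of the test wells of a plate; 100 nL library stock went into each well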
* marks the source's active call; other numbers are inactive results; & = joins results of further samples. Some of the compounds tested. The share of hits here may be higher or lower than overall.

Preview (four entries):
SMILES	VACV E9 pol inh
O=C1CC(c2coc3ccccc3c2=O)Sc2ccccc2N1 (stereo unspecified)	98
CN(C)C(=O)N1CCC(C(=O)N2CCC3(CC2)OCCO3)CC1	102
Nc1nn(-c2ccc(Cl)cc2Cl)cc1-c1cccs1	85
COc1ccc(C(=O)OCC2CC(c3ccccc3)=NO2)cc1OC (stereo unspecified)	93

All compounds of this part, from the start:
SMILES	VACV E9 pol inh
O=C1CC(c2coc3ccccc3c2=O)Sc2ccccc2N1 (stereo unspecified)	98
CN(C)C(=O)N1CCC(C(=O)N2CCC3(CC2)OCCO3)CC1	102
Nc1nn(-c2ccc(Cl)cc2Cl)cc1-c1cccs1	85
COc1ccc(C(=O)OCC2CC(c3ccccc3)=NO2)cc1OC (stereo unspecified)	93
CCN(CC)CCOc1ccc(/C(=C(\Cl)c2ccccc2)c2ccccc2)cc1	100
Cc1sc(NC(=O)/C=C/C(=O)O)c(C#N)c1C	97
Cc1ccc(N2C(=O)N(c3ccccc3)C(=N)C2=S)cc1Cl	100
Cc1cc(C)cc(-n2nc3c(c2NC(=O)c2cccs2)CSC3)c1	99
COc1ccc(/C=C(/NC(=O)c2ccccc2)C(=O)N2CC(C)OC(C)C2)cc1 (stereo unspecified)	100
O=C(O)/C(=C/C(=O)c1ccc(F)cc1)Nc1ccc2[nH]c(=O)[nH]c2c1	95
COC(=O)c1ccccc1NC(=O)N1CCC(CN2CCOCC2)CC1	99
CC1(C)C(=N)N(c2ccccc2)C(=O)N1c1ccccc1	100

In a second layout: results already given
Compound: O=C1CC(c2coc3ccccc3c2=O)Sc2ccccc2N1 (stereo unspecified)
  VACV E9 pol inh: 98
Compound: CN(C)C(=O)N1CCC(C(=O)N2CCC3(CC2)OCCO3)CC1
  VACV E9 pol inh: 102
Compound: Nc1nn(-c2ccc(Cl)cc2Cl)cc1-c1cccs1
  VACV E9 pol inh: 85
Compound: COc1ccc(C(=O)OCC2CC(c3ccccc3)=NO2)cc1OC (stereo unspecified)
  VACV E9 pol inh: 93

The list continues.
SMILES	VACV E9 pol inh
CCOC(=O)c1oc2cc3sc(N4CCCCC4)nc3cc2c1C	105
O=C(CSC1=NCCN1)NC1CCCCCC1	96
N#CSCC(=O)C12CC3CC(CC(C3)C1)C2	100
COC(=O)CC1=Nc2ccccc2NC(=O)C1	101
COc1cccc(C(c2c(O)[nH]c(=S)[nH]c2=O)N2CCOCC2)c1OC (stereo unspecified)	93
CCC(Sc1nc2ccccc2c2nc3ccccc3n12)C(=O)N1CCOCC1 (stereo unspecified)	83
Clc1ccc(Sc2ncccn2)cc1	84
Cc1[nH]c2ccccc2c1C(c1cccs1)N1CCCC1 (stereo unspecified)	85
Cn1c(=NC(=O)c2ccc(Cl)s2)sc2cc(S(C)(=O)=O)ccc21	101
O=C(Cn1cccc1)Nc1cccc(F)c1	102
N#Cc1ccc(C=Nc2cc(Cl)c(N)cc2Cl)cc1	106
CC1Cc2ccccc2N1C(=O)COC(=O)c1n[nH]c2ccccc12 (stereo unspecified)	102
c1coc([C@H]2Nc3ccccc3[C@H]3OCC[C@@H]23)c1	101
CC1CN(C(=O)c2ccccc2)OC(c2cccc(O)c2)O1 (stereo unspecified)	100
O=C(O)COc1ccc(Br)cc1	104
Cc1c(C(=O)O)sc2nc3n(c(=O)c12)CCC3	92
CC(=O)Nc1cc(C(=O)N2CCN(c3cc(Cl)ccc3C)CC2)ccc1Sc1ccc(F)cc1	102
Cc1ccc2c(c1)N(C(=O)n1ccnc1)CC(C)O2 (stereo unspecified)	91
CCCCN(C)c1ccc(C(=O)OC)cc1NC(=S)Nc1cccc(C)c1	103
O=C(C/C(=C1/Cc2ccccc2C1=O)c1ccccc1)c1ccccc1	97
O=C(O)CC(=O)Oc1ccc(Cl)cc1	111
CCn1c(C(=O)N2CCC(C(=O)N3CCCCC3)CC2)cc2sccc21	104
O=C(NCCCN1CCCC1=O)c1ccc(Cn2c(SCc3ccccc3)nc3ccncc32)cc1	110
O=S(=O)(CCc1ccccc1)N1CCOCC1	103
O=C(NN1C(=O)CSC1=S)c1ccccc1	100
O=C(Nc1ccccc1)n1nccc1-c1sccc1Cl	98
O=C(CCSCc1ccccc1F)N1CCN(c2cccc(Cl)c2)CC1	100
Cc1ccc2c(c1)N(CC(=O)N1CCOCC1)C(=O)c1cccnc1O2	95
Cn1c(O)c(C=Nc2cccc(CO)c2)c2ccccc21	99
CCOc1ccc(C(=O)CCc2nc3ccccc3s2)cc1	106
CCOC(=O)c1cn(Cc2cccc(Cl)c2)c2cc(C)nn2c1=O	110
O=C(O)C1CC=CCC1C(=O)N1CCN(C/C=C/c2ccccc2)CC1 (stereo unspecified)	99
CCOC(=O)c1sc2nc(C)cc(C)c2c1NC(=O)Nc1ccc(Cl)cc1	110
CCOc1ccc(NC(=O)c2cc(=O)[nH]c3ccccc23)cc1	101&102
c1ccc(CCNc2nc3ccccc3n3cnnc23)cc1	96
COc1ccc(C(C)(C)C)cc1NC(=O)COC(=O)CC1CCCC1	98
N#Cc1ccc(-n2cccc2)nc1	116
CN1CCN(S(=O)(=O)c2cccc3ccccc23)CC1	101
CCOc1ccc(N=Cc2c[nH]c3ccc(Br)cc23)cc1	86
CCOC(=O)c1sc(S(C)(=O)=O)c2c1CC(C)(C)C/C2=N/O	101
O=C(Nc1ccccc1NS(=O)(=O)c1ccc(F)cc1)C1CCC1	93
CC(=O)OC1c2ccccc2NC(c2ccccc2)C1(C)C (stereo unspecified)	101
O=C1Cc2ccccc2C(=O)N1n1cnnc1	100
O=C(O)CC1(CC(=O)Nc2cccc3cnccc23)CCCC1	90
C[n+]1ccc(/C=C/c2ccccc2O)c2ccccc21	100
CC(=O)N1N=C(N)SC12CCCC2	100
Cc1cc(=O)oc2cc(OCC(=O)N3CCc4ccccc43)ccc12	94
CCOC(=O)c1sc(N2CCCCC2)c2c1CC(C)(C)CC2=O	93
CSc1nc2c(cnn2-c2ccccc2)c(=O)[nH]1	96
COc1cccc2c1N=C1OC=CC1C2OC (stereo unspecified)	100
CC(=O)OC1CCN(c2ncc(C(F)(F)F)cc2Cl)CC1	102
Nc1n(N)c2ccccc2[n+]1CC(=O)c1ccccc1	88
O=C1NS(=O)(=O)c2ccccc21	89
Cc1cc(C)c(C(=O)C/C(=N/O)C(F)(F)F)c(=O)[nH]1	92
OCCCc1nc2ccccc2n1Cc1ccccc1Cl	79
COc1ccc(C(=O)Nc2nnc(-c3ccccc3C)s2)cc1OC	102
Clc1cc(Cl)cc(-c2nnc(N3CCCC3)o2)c1	91
CC(C)(C)C(=O)COC(=O)c1ccccc1C(=O)c1ccccc1	94
CN1CCN(Cc2ccc[nH]2)CC1	100
O=C(O)C1CC(=O)N(Cc2ccc(F)cc2)C1 (stereo unspecified)	100

Next results.
SMILES	VACV E9 pol inh
O=S(=O)(NC1CC1)c1ccc2c(c1)OCCO2	101
Cc1ccc(C2=NN(C(=O)CCC(=O)O)C(c3cn(-c4ccccc4)nc3-c3ccc(C)cc3)C2)cc1 (stereo unspecified)	100
COc1cc(=O)n(C)c2cc(N(C)C)ccc12	101
COc1ccc(-c2nnnn2-c2ccc(F)cc2F)cc1	106
COC(=O)c1ccc(NC(=O)CCCCl)cc1	98
CCOC(=O)CN1NC(CC)(c2ccccc2)NC1=S (stereo unspecified)	100
CC(=O)Oc1cn(C(C)C)c2nc(C)n3c4ccccc4nc3c12	95
CSc1nc2c(c(=O)n1-c1ccccc1)SCC2	101
CN1N=C(C(C)(C)C)CC1=O	84
C=CCSc1nc(N)cc(=O)[nH]1	101
CSC1=NC(C)(C)CC12C=CC(=O)C(C)=C2 (stereo unspecified)	97
CC(C)(Oc1ccc(Cl)cc1)C(=O)Nc1ncn[nH]1	106
N#CSC(C#N)Cc1ccc(Cl)c(Cl)c1 (stereo unspecified)	93
NCCCCNCCCN	100
N#CNC1=NCN(CCN2CCOCC2)CN1	100
O=C(O)CCSc1nnc2sc3ccccc3n12	100
CSC(=NCc1ccc(C)cc1)Nc1ccccc1	108
CNc1c(NC(C)=O)c(=O)oc2ccccc12	104
CC(=O)Nc1ccc(S(=O)(=O)N(C)C2CCCCC2)cc1	95
O=C(CCn1c(=O)oc2ccccc21)N1CCCCCC1	93
O=C(CCn1c(=O)oc2ccccc21)NCCCN1CCN(c2ccc(F)cc2)CC1	100
CN(C)c1ccc(/C=C2\CCC(C3CCCC3)C2=O)cc1 (stereo unspecified)	107
COC(=O)C(NC(=O)c1c(C)nn(C)c1Cl)c1ccccc1 (stereo unspecified)	98
COc1cccc(CNC23CC4CC(CC(C4)C2)C3)c1OCc1ccccc1F	100
CCC12CC3CC(CC(N)(C3)C1)C2	100
CCN(CC)CC(=O)c1sc2ccc(Cl)cc2c1C	73
COc1ccccc1S(=O)(=O)Cc1ccc(C(=O)NC(C)c2ccc3c(c2)OCCO3)o1 (stereo unspecified)	102
COc1ccc2c(c1)CCc1c(C(=O)Nc3cccnc3)noc1-2	100
Cc1ccc2[nH]c(CCN(C)C)c(CC#N)c2c1	99
CC1CCN(C(=O)Cn2cc(C#N)c3ccccc32)CC1	100
O=C(c1cccc(Cl)c1)N(Cc1cc2ccccc2[nH]c1=O)c1ccccc1	91
CC1=C(/C=C/C(C)=C/C=C/C(C)=C\C(=O)O)C(C)(C)CCC1	29*
Cc1ccc(C)n1-c1nn(S(C)(=O)=O)c2cccc(F)c12	93
NCC1OC(OC2C(N)CC(N)C(OC3OC(CO)C(O)C(N)C3O)C2O)C(N)C(O)C1O (stereo unspecified)	100
O=C(NCc1nc2ccccc2c(=O)[nH]1)c1ccccc1	101
Cc1cccc(NC(=O)CSc2nc3c(c(-c4ccco4)c2C#N)CCCC3)c1C	100

A different layout for some results above:
| Molecule | VACV E9 pol inh |
| --- | --- |
| O=C(C/C(=C1/Cc2ccccc2C1=O)c1ccccc1)c1ccccc1 | 97 |
| O=C(O)CC(=O)Oc1ccc(Cl)cc1 | 111 |
| CCn1c(C(=O)N2CCC(C(=O)N3CCCCC3)CC2)cc2sccc21 | 104 |
| O=C(NCCCN1CCCC1=O)c1ccc(Cn2c(SCc3ccccc3)nc3ccncc32)cc1 | 110 |
| O=S(=O)(CCc1ccccc1)N1CCOCC1 | 103 |
| O=C(NN1C(=O)CSC1=S)c1ccccc1 | 100 |
| O=C(Nc1ccccc1)n1nccc1-c1sccc1Cl | 98 |
| O=C(CCSCc1ccccc1F)N1CCN(c2cccc(Cl)c2)CC1 | 100 |
| Cc1ccc2c(c1)N(CC(=O)N1CCOCC1)C(=O)c1cccnc1O2 | 95 |
| Cn1c(O)c(C=Nc2cccc(CO)c2)c2ccccc21 | 99 |
| CCOc1ccc(C(=O)CCc2nc3ccccc3s2)cc1 | 106 |
| CCOC(=O)c1cn(Cc2cccc(Cl)c2)c2cc(C)nn2c1=O | 110 |

The listing continues:
SMILES	VACV E9 pol inh
CC(C)(C)C(=O)N1CCN(Cc2ccccc2)CC1	78
O=C(c1cc2ccccc2c(=O)o1)N1CCN(C(c2ccccc2)c2ccccc2)CC1	97
COc1cccc(CN2CCN(Cc3cccnc3)CC2)c1	100
CCC(=O)N=c1sc2cc(C)ccc2n1C	90
O=S(=O)(NC1=NCC2CCCC2N1)c1ccccc1 (stereo unspecified)	96
Cc1nc(-c2cccc(NC(=O)/C=C\C(=O)O)c2)cs1	99
CC(=O)Oc1ccc(C(=O)c2ccccc2)c(OC(C)=O)c1	98
Cc1cccc2c1-c1sc(C(=O)Nc3ccc(S(N)(=O)=O)cc3)cc1CO2	98
CNc1[nH]cnc(=S)c1N	100
Cc1cc(C)n(-c2nc(-c3ccccc3)cs2)n1	92
Cc1cc(-c2ccccc2)nc2cc(C(=O)N(C)C3CCCCC3)nn12	95
C1=C(N2CCC(Cc3ccccc3)CC2)CCc2ccccc21	105
CCOC(=O)CSc1nc2c(sc3ccccc32)c(=O)n1Cc1ccccc1	96
Clc1ccc(-c2cc(C3CCNCC3)[nH]n2)c(Cl)c1	110
CC(C)c1ccc(NCC(O)CSc2ccccc2)cc1 (stereo unspecified)	99
CC1(C)CC(NC(=O)CNc2ccccc2)CC(C)(C)N1	95
O=C1C(CN2CCCCC2)CCCC1CN1CCCCC1 (stereo unspecified)	101
COC(=O)C1=C(C)NC(SCC(=O)NC2CCCCC2)=C(C#N)C1c1ccccc1F (stereo unspecified)	100
Cc1oc(-c2cccc(Cl)c2)nc1CSc1nc2c(c(=O)[nH]1)CCCC2	96
c1ccc(-c2nn3c(-c4ccccc4)nnc3c3ccccc23)cc1	92
COc1cc2c(N3C(=O)CCC3=O)c3c(=O)oc(C)cn3c2cc1OC	101
CC1CC(C)(C)NC(=S)N1CCC(=O)N1c2ccccc2CC1C (stereo unspecified)	108
CSc1ccc(C(N)CCO)cc1 (stereo unspecified)	91
O=c1cc(O)c2sc3nc4c(c(C(F)(F)F)c3c2[nH]1)CCCCC4	99
COc1ccc(-n2c(O)c(C=NC(C)(C)C)c3ccccc3c2=O)cc1	103
Cc1ccc(C(=O)NCCN2CCNC2=O)cc1	68
COc1ccccc1C(=O)N/C(=C\c1ccccc1)C(=O)N1CCOCC1	100
O=c1/c(=C2/CCCCCN2)c2nc(-c3ccccc3)cn2n1-c1ccccc1	94
Cc1nc2ccccc2nc1CSc1nc2sc3c(c2c(=O)n1C)CCC(C)C3 (stereo unspecified)	100
CNC(=O)NC(=O)CSc1nnc(-c2ccco2)o1	111
CC(C)N1CC(C(=O)Nc2ccc(Cl)c(Cl)c2)CC1=O (stereo unspecified)	97
O=C(/C=c1/[nH]/c(=C/c2ccc(F)cc2)c(=O)[nH]c1=O)c1ccccc1	96
CCc1ccc(NC(=O)C(C)OC(=O)c2cccc(N(C)C)c2)cc1 (stereo unspecified)	103
c1ccc(NCc2nnc3n2CCCCC3)cc1	102
CCOC(=O)[C@H](CCc1ccccc1)N[C@@H](C)C(=O)N1CCC[C@H]1C(=O)O	100
CC1(C)OC2C(CO)OC(n3cnc4c(=O)[nH]cnc43)C2O1 (stereo unspecified)	101&94
Cc1cccc(OCC(O)CN2CCN(c3ccccc3)CC2)c1 (stereo unspecified)	105
COCCn1c(=NC(=O)C2COc3ccccc3O2)sc2ccccc21 (stereo unspecified)	102
O=C(COc1cc(O)c2c(=O)cc(-c3ccccc3)oc2c1)c1ccccc1	100
CCn1c(C(=O)NCc2ccccc2)cc2oc3ccccc3c21	102
Cc1cc(=O)[nH]c(SCC(=O)N2CCCC2)n1	100
O=C(CCc1nc2ccccc2s1)NC1CCCc2ccccc21 (stereo unspecified)	104

Screening results (PubChem BioAssay)
